D2 potentiator – human D2 receptor positive allosteric modulation | DiscoveRx D2 beta-arrestin cells, luminescence, 90 min; 100% = 57 uM dopamine signal | potentiation, % (no concentration beside the values) | 0.23% of 360,000 active | AID 624464; active = potentiation of 50% or more; inconclusive = 30% to 50%; inactive = 30% or less;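 note: compound concentration not given in the record; tested on top of an EC20 dose of dopamine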
Target sequence (P14416 whole entry, looked up): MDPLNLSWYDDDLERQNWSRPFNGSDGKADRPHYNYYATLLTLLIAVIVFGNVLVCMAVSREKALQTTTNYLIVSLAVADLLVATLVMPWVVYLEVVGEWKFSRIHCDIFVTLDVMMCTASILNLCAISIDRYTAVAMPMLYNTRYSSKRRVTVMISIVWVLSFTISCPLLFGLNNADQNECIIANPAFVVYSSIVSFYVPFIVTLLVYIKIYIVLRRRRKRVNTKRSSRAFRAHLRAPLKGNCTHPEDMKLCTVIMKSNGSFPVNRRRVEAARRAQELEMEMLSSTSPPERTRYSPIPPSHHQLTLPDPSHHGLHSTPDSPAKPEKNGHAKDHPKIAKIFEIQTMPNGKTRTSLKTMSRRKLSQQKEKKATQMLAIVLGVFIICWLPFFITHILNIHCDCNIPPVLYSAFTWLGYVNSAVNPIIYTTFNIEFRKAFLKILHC
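D2 cells co-treated with compound plus 50 nM dopamine (EC20) for 90 min at 37 deg C to detect potentiation. Beta-arrestin recruitment was read as enzyme-fragment luminescence after 1 h at ambient temperature. Full response was set by 57 uM dopamine.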
CtBP-E1A inh – inhibitors of CtBP/E1A interaction | AlphaScreen GST-E1A/His-CtBP binding, 1536-well; hits give low values; control for the full effect not named in the record | activity change, % (no concentration beside the values) | 0.49% of 340,000 active; in the data active means activity change below about -65%; inconclusive means about -30% to -65%; inactive means above about -30%; note: % is set by controls: 0 for no effect and ±100 for the full control effect; compound concentration not given in the record
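AlphaScreen with 125 nM GST-E1A and 125 nM His-CtBP (5X stocks) in Tris pH 8.0, 300 mM NaCl, BSA, Tween 20, TCEP. Compounds preincubated 2 h at 37 deg C, then glutathione donor/nickel acceptor beads added for 1 h at 37 deg C in dark.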
D2 ag – activates the human D2 dopamine receptor | 0.084% of 360,000 active | DiscoveRx PathHunter D2 beta-arrestin, luminescence, 90 min; 100% = 57 uM dopamine signal | activation, % (test concentration not listed); in the data active = activation above about 40%; inconclusive = about 15% to 40%; inactive = below about 15%; note: compound concentration not given in the record; the text of the record calls up to 30% inactive
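DiscoveRx PathHunter D2 beta-arrestin cells (2,100/well) attached overnight, then compound-stimulated 90 min at 37 C in HBSS/10 mM HEPES/0.1% Tween-20 buffer; beta-galactosidase complementation read by luminescence after 1 h at ambient temperature. Dopamine 57 uM final (EC100) as control.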
PINK1 expr mod – modulators of PINK1 expression | PINK1 immunofluorescence, high-content cytometry, 24 h | Potency, µM (titrated, usually from 76.6 µM), for the others: at the highest dose activation (PINK1 increase), hits mostly activators | 0.2% of 410,000 active | AID 624263; active = well fitted activation curve with a large enough effect; inconclusive = small, poorly fitted or top-dose-only effect; inactive = flat fitted curve, though single readings scatter; cell line not stated here;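 note: potency is the fitted concentration of half-maximal effect; % of control where 0% means no effect; nearly all actives have a fitted effect of over 65% in size; a mitochondrial uncoupler was the plate control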
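Stable cell line, 250 cells/well, 12 h attachment; compounds pinned at 5 concentrations, 24 h; CCCP control. Fixed with nuclear dye, primary antibodies 12 h at 10 degrees C, secondary plus cell stain; laser-scanning cytometer read.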
Six1-Eya2 blk – blocks human Six1 binding to Eya2; Q15475+O00167; AlphaScreen GST-Six1/His-Eya2 binding, biochemical; hits give low values; control for the full effect not named in the record; activity change, % (no concentration beside the values); 0.56% of 360,000 active; AID 651725; in the data active = activity change below about -65%; inconclusive = about -30% to -65%; inactive = above about -30%; note: % is set by controls: 0 for no effect and ±100 for the full control effect; compound concentration not given in the record
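Homogeneous AlphaScreen proximity assay pairing GST-Six1 with His-tagged Eya2 (added as 5X mix: 250 nM and 500 nM) in 50 mM Tris pH 8.0, 300 mM NaCl, 1 mM TCEP. Glutathione donor and nickel acceptor beads; 1 h, 37 °C, dark.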
TRPML1 agonist – agonists of human TRPML1 channel; AID 624414; TRPML1-expressing cells, Ca2+ dye fluorescence, FDSS; host cell line not named in the record; reference of the full effect not given here; activation, % (no concentration beside the values); 0.12% of 410,000 active; in the data active = activation above about 50%; inconclusive = about 30% to 50%; inactive = below about 30%; note: 0% is about no effect; the text of the record puts the active cut at 80%
Target sequence (Q9GZU1 whole entry, looked up): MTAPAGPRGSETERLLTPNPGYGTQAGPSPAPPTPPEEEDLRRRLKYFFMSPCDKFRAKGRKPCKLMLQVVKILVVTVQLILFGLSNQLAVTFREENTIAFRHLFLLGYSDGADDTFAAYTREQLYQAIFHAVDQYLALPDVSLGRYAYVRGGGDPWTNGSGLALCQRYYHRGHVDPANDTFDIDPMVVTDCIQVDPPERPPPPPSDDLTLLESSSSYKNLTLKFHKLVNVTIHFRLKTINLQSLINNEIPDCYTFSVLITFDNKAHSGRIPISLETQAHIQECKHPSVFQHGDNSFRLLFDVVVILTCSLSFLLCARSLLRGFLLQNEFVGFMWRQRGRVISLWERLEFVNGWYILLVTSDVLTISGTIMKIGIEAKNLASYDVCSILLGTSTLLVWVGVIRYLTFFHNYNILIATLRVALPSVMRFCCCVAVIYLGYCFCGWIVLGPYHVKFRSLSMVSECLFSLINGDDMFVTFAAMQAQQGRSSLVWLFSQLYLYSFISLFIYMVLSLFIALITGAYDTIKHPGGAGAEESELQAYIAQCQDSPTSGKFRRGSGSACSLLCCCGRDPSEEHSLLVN
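In this qHTS format, compounds were pin-transferred onto Ca8-dye-loaded TRPML1-DL cells induced with Tet overnight, and intracellular Ca2+ fluorescence was recorded kinetically for 110 s after a 10 s baseline. A subsequent 4uM final 54-4 (EC80) addition followed by a second 110 s read served as the antagonist phase.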
Numbers without * were called inactive; ? = inconclusive; . = no result given; & = joins results of further samples; [ ] = remark or other dose.

SMILES	D2 potentiator	CtBP-E1A inh	D2 ag	PINK1 expr mod	Six1-Eya2 blk	TRPML1 agonist
COc1cnc(-c2ccccc2)nc1Oc1cccc(C)c1	-4	23	0.1	3.0%	31	3.1
O=C(O)CCc1nc2cc3ccccc3cc2[nH]1	-6	2	4.6	2.9%	2	0.7
CC(=O)OCCNC(=O)Cn1cnc2c1c(=O)n(C)c(=O)n2C	-8	3	-1.2	-0.1%	0	-0.3
O=C(Cn1c(NCCO)nc2ccccc21)NCC1CCCO1 (stereo not given)	-8	10	4.2	1.9%	6	0.5
CCC(Oc1ccc(C)cc1)C(=O)Nc1ccc2c(c1)n(C)c(=O)n2C (stereo not given)	-8	4	-1.2	2.7%	1	1.4
C=C(C)CN(CC)C(=O)CCc1nnc(CCc2c[nH]c3ccccc23)o1	-5	3	-3.3	-0.3%	-1	1.4
CC(C)CC(C(=O)O)N1C(=O)C2C3C=CC(C2C1=O)C1C(=O)N(C(CC(C)C)C(=O)O)C(=O)C31 (stereo not given)	-3	0	-3.3	-0.3%	0	-0.8
Cc1cccc(N2CCN(C(=O)CCS(=O)(=O)c3ccc4c(c3)NC(=O)CO4)CC2)c1C	-1	0	8.9	0.0%	0	1.8
COc1ccc(NC(=O)c2sc3nc(C)nc(N4CCOCC4)c3c2C)c(OC)c1	1	-1	0.0	0.6%	-1	0.8
Cc1ccc(C(=O)NC(Cc2c[nH]c3ccccc23)C(=O)O)o1 (stereo not given)	-8	0	-5.0	0.4%	22	-0.7
COc1ccc(/C=C/C(=O)NC(=S)NCC2CCCO2)cc1 (stereo not given)	0	-2	2.0	2.6%	1	1.3
S=c1[nH]nc(Cc2ccccc2)n1-c1cccc2ccccc12	-11	3	-3.1	-1.1%	-7	2.8
O=S(=O)(N/N=C/c1ccc(N2CCOCC2)cc1)c1ccccc1	9	0	-0.8	13%	1	0.7
Cc1ccc[n+](CC(=O)c2ccc(Cl)cc2)c1	-19	4	-0.6	-0.2%	-6	0.2
Cc1ccc(C(=O)NCC(=O)Nc2ccc(S(=O)(=O)Nc3cc(C)nc(C)n3)cc2)cc1	-4	-25	-4.1	0.5%	-2	0.9

In the list so far, these have a COOH group:
SMILES	D2 potentiator	CtBP-E1A inh	D2 ag	PINK1 expr mod	Six1-Eya2 blk	TRPML1 agonist
O=C(O)CCc1nc2cc3ccccc3cc2[nH]1	-6	2	4.6	2.9%	2	0.7
CC(C)CC(C(=O)O)N1C(=O)C2C3C=CC(C2C1=O)C1C(=O)N(C(CC(C)C)C(=O)O)C(=O)C31 (stereo not given)	-3	0	-3.3	-0.3%	0	-0.8
Cc1ccc(C(=O)NC(Cc2c[nH]c3ccccc23)C(=O)O)o1 (stereo not given)	-8	0	-5.0	0.4%	22	-0.7

Remaining list, next part.
SMILES	D2 potentiator	CtBP-E1A inh	D2 ag	PINK1 expr mod	Six1-Eya2 blk	TRPML1 agonist
CN(CCO)C(=O)c1nc[nH]c1C(=O)N(C)Cc1ccccc1	-1	38	4.6	3.1%	27	0.3
CCOC(=O)c1c(NC(=O)c2c(-c3ccccc3)noc2C)sc(C)c1-c1ccccc1	-19	4	-3.1	3.4%	-18	-0.1
COc1cc(/C=C2\SC(=O)NC2=O)ccc1OCc1ccc(Cl)nc1	2	-12	1.9	-1.3%	-8	-0.1
Cc1c(CBr)[n+](=O)c2c(n1[O-])C(Br)CCC2Br (stereo not given)	-4	8	-1.1	-1.2%	11	0.0
O=C1CC(=O)N(c2ccccc2)N1c1ccccc1	-4	-10	1.3	1.0%	-1	0.5
Nc1c(C(=O)Nc2nc3ccccc3s2)sc2nc(-c3cccs3)ccc12	24	-11	3.6	-5.0%	6	2.3
CC(=O)N1CCN(c2ccc(NC(=O)c3ccc([N+](=O)[O-])cc3)cc2)CC1	-3	-4	0.2	4.8%	-6	0.1
CCN(CCCNC(=O)CCc1nc(-c2ccc(C)cc2)no1)c1cccc(C)c1	12	?	1.9	12%	-26	2.0
Cc1cccc(C)c1N1CCN(C(c2cc3ccccc3o2)c2nnnn2C(C)(C)C)CC1 (stereo not given)	.	-3	.	3.6%	-14	54*
Cc1ccc(NC(=S)NNC(=O)c2c([N+](=O)[O-])c(C)nn2C)cc1	-19	9	-9.0	-1.2%[38.3 µM]	2	-0.3
O=C(Nc1ccc2c(c1)OCCO2)c1cccc(Br)c1	-14	0	5.3	-0.2%	0	0.0
Cc1cccc(Cn2c(=O)c3c(nc4n3CCCN4Cc3ccccc3)n(C)c2=O)c1	-20	-2	-1.2	0.9%	?	-0.5
CC(=O)Nc1nnc(SCC(=O)NC2CC2)s1	0	-1	-3.2	2.8%	-1	0.3
CCC(=O)Nc1ccc(C(=O)CSc2nnc(-c3ccc(NS(C)(=O)=O)cc3)n2C)cc1OC	9	6	-0.2	0.5%	-3	0.7
CC(=O)NCCc1ccc(S(=O)(=O)NC2OC(=O)c3ccccc32)cc1 (stereo not given)	-2	0	-0.7	-0.3%	6	-0.1
CC[C@@H]1CCCCc2ccccc2[C@H](C(=O)C[C@H](O)CC(C)=O)OC1=O	-1	2	-4.4	1.8%	0	-0.7
CCC(=O)c1ccc(OCC(=O)O)c(OC)c1	-9	7	-1.2	-0.9%	-1	0.9
CNC(=S)N(CCO)Cc1cc2cc3c(cc2[nH]c1=O)OCO3	-4	-23	-0.1	-1.3%	-18	1.4
O=C(CSc1nnc(-c2ccc(Cl)cc2Cl)n1C1CCCCC1)NC1CCS(=O)(=O)C1 (stereo not given)	8	-11	-1.0	.	-8	-0.3
CC1C(C#N)=C(N)OC2=C1C(=O)CC(C)(C)C2 (stereo not given)	-3	7	3.0	-3.3%	9	-0.6
O=C(Oc1cc(=O)oc2c1c(=O)n1c3c(cccc23)CC1)c1ccc(F)cc1	4	22	2.9	-1.4%	5	0.5
O=c1oc2c(O)cccc2cc1-c1nc2ccccc2[nH]1	15	-22	5.2	1.5%	5	-0.6
COc1ccc(NC(=O)CSc2nccn2-c2cccc(OC)c2)cc1	-36	-3	-3.4	-0.8%	-10	1.6
O=C(O)c1csc(-c2ccc(Cl)cc2)n1	-4	9	-4.1	-0.8%	11	0.2
CCc1nnc(NC(=O)CN2CCN(Cc3cccc(F)c3)CC2)s1	-29	-11	-12	-0.3%	-7	1.7
CCNS(=O)(=O)c1ccc(NC(=O)Nc2cccc(OC)c2)cc1	-21	-13	-0.3	-0.3%	-1	0.4
CC(=O)Nc1ccc(S(=O)(=O)NC(C)C(=O)NC(C)c2ccccc2)cc1 (stereo not given)	6	25	-1.8	-0.6%	-18	-0.2
Cc1ccccc1OCCOC(=O)c1cc(S(=O)(=O)N2CCOCC2)ccc1C	-10	-8	-1.9	0.1%	8	1.3
CS(=O)(=O)Nc1cccc(-c2cn3ccccc3n2)c1	-4	0	3.9	0.2%	22	-0.3
O=C(CCc1nnc2ccc(N3CCOCC3)nn12)Nc1ccc(F)cc1F	-6	0	3.1	-1.0%	-1	0.1
COc1ccc(C2C(C#N)=C(N)Oc3cc(O)ccc32)cc1OC (stereo not given)	26	-10	-1.9	5.9%	0	0.6
COc1cc(/C=C/C(=O)OCC(=O)c2c(N)n(C)c(=O)n(C)c2=O)ccc1OCC#N	2	-22	0.6	4.4%	?	0.5
Cc1cc(C)c(S(C)(=O)=O)c(NN)n1	-6	1	-3.8	3.0%	4	-0.5
COc1cc(C2Nc3ccccc3C(=O)N2c2ccc3c(c2)OCCO3)ccc1OCC(C)C (stereo not given)	-19	-3	-6.9	0.0%	-8	0.7
CN1CCN(S(=O)(=O)c2ccc(-c3ccccc3)cc2)CC1	-3	45	-2.1	11%[38.3 µM]	18	0.6
Cc1ccccc1C(=O)OCCN1CCOCC1	-2	10	-4.7	0.4%	3	-1.1
NC(=O)c1ccsc1NC(=O)CCS(=O)(=O)c1ccc(F)cc1	11	7	-3.6	2.0%	-2	-0.7
CC/C(=N\NC(=S)Nc1cc(C)ccc1C)c1ccc(OC(F)F)cc1	-24	-16	-4.1	25%	-26	4.0
CC(C)C(=O)Nc1nnc(-c2ccccc2)o1	-4	-8	-1.6	2.3%	-16	-0.5
CN(Cc1cnc2nc(N)nc(N)c2n1)c1ccc(C(=O)NC(CCC(=O)O)C(=O)O)c2ccccc12 (stereo not given)	-5	-27	0.1	-6.4%	?	0.6
Cc1onc(-c2ccccc2)c1C(=O)NCCc1c[nH]c2ccccc12	-1	-4	1.8	-0.2%[38.3 µM]	-3	-0.6
COc1ccccc1-c1sc2cc3c(cc2c1C#Cc1ccccn1)OCO3	-4	.	0.3	-0.1%	5	1.6
CCn1nc(C)c(CN2CCN(Cc3cccc(OC)c3)C(CCO)C2)c1C (stereo not given)	-4	9	-2.8	-0.8%	-8	0.0
COc1ccc(-c2c[n+]3c4n2CCCCC4=C(c2ccc(Br)cc2)C3)cc1	-15	-23	-2.7	?	?	-0.1
Nc1nc(SCC(=O)NC2CCCCC2)[nH]c(=O)c1-c1ccccc1	-1	51	0.0	.	25	-0.4
COc1ccc(-n2nc3c(N4CCC(C(=O)N5CCC(C)CC5)CC4)nnc(C)c3c2C)cc1	-8	.	-3.4	0.2%&0.1%	-7	3.7&2.6
Cc1onc(-c2ccccc2Cl)c1C(O)c1ccc(F)cc1 (stereo not given)	-6	14	-0.9	1.2%	-1	-1.3
O=c1c2ccccc2nnn1CSc1nnc(Nc2ccccc2)s1	0	0	-2.4	3.7%	1	-0.3
COc1ccc(C2=NN(C(=O)c3cccc([N+](=O)[O-])c3)C(c3cccc([N+](=O)[O-])c3)C2)cc1 (stereo not given)	-7	-10	-0.5	12%[38.3 µM]	-14	-0.3
CC(=O)Oc1ccc(-c2csnn2)cc1	-1	-1	-3.0	-0.6%	5	0.1
Cn1c(C(C#N)C(=O)Cc2cccc3ccccc23)nc2ccccc21 (stereo not given)	3	0	-0.5	5.1%	6	-0.2

High-throughput results from PubChem BioAssay.
